# Screening data as filed in PubChem.
# INS promoter inh: inhibitors of insulin promoter-driven GFP, primary screen, imaging, TRM-6 cells (human fetal islet line), eGFP reporter, cell count. AID 1273, 2008. inhibition, % at 2 µM. reporter expression induced with tamoxifen. 0.9% of 130,000 active;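 active = inhibition above the mean plus 3 SD, with well images judged a real hit on visual review, cut at about 60% in these data, passing the limit was not always enough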
# PKD1 inh: inhibitors of human PKD1 kinase, biochemical, fluorescence polarization. PKD1 kinase fluorescence polarization assay. inhibition, %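 (about 10 µM by stock and volumes)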. 0.056% of 200,000 active. AID 797, 2007;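 active = inhibition of 50% or more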;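 also: controls were vehicle for no effect and a reference inhibitor for full effect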
# Target sequence (Q15139 whole entry, looked up): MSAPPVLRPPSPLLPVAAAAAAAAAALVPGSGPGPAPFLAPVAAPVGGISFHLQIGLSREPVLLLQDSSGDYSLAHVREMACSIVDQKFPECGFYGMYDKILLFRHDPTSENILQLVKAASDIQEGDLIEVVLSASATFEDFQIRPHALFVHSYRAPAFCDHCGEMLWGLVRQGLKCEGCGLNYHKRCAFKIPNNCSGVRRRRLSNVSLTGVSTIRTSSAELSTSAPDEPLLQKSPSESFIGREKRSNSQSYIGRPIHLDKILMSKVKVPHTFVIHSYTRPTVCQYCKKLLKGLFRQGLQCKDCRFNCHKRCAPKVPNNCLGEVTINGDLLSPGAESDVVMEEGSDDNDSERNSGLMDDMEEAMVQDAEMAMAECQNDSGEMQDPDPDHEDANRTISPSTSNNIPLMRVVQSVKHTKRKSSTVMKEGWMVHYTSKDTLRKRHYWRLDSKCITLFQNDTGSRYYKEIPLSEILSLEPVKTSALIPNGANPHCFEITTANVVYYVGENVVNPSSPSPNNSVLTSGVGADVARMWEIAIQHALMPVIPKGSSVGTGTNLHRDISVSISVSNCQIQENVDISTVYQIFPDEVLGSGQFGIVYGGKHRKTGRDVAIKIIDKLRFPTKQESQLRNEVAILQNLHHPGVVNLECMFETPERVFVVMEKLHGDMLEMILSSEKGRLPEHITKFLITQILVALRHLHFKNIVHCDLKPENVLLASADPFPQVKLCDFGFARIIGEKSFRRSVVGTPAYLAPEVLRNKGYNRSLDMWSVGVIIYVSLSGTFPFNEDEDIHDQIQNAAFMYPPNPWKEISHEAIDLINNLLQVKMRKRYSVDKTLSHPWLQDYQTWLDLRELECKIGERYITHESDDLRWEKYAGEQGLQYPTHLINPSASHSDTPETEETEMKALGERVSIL
# GALR2 ag: GALR2 receptor agonists, primary screen, cell-based | Galanin receptor type 2 (Homo sapiens), O43603 | GALR2-expressing cells, agonist activation read-out | 0.48% of 140,000 active | AID 803, 2007 | activation, %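 (tested at 5 µM)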;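 active = above mean plus 3 SD of all compounds, about 5% in these data, not always enough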;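 also: 0% = vehicle buffer wells and 100% = reference agonist at full effect; tested in CHO reporter cells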
# HSV augment: enhancers of HSV replication in host cells, fold increase, host cell viability; maximum fold increase; AID 1956, 2009; HSV replication augmentation in cells; 0.005% of 220,000 active;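 active = peak rise of 1.5-fold or more in the series; tested in PC3 cells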;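 also: first round at 10 µM; read as green reporter fluorescence; hits show the peak of a series up to 25 µM; 1 = signal of infected wells without compound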
# RGS16-Gao: modulators of RGS16 binding to Galphao, primary screen, biochemical, human proteins, multiplexed bead flow cytometry; bead-based flow cytometry RGS16-Galphao binding, fluorescence; actives lie on both sides; Regulator of G-protein signaling 16 (Homo sapiens) + Guanine nucleotide-binding protein …; 0.38% of 220,000 active; binding response (% of control), % at 10 µM;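 active = below 25% or above 175%, edge rows of some plates excepted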;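 also: Galphao activated by GDP with aluminum fluoride before binding; 100% = wells without compound and 0% = beads without RGS; some results beyond the cut were filed as inactive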
# INS promoter inh cell count: also measured in INS promoter inh; calls as there; normalized cell count, %; measured here: cell count, toxicity; reference of the scale not given here;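 cells exposed to compound for 48 h; stained nuclei by imaging scaled within each plate; lower means fewer cells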
# HSV augment primary fold: also measured in HSV augment; calls as there; fold increase; compound at 10 µM; measured here: primary screen fold increase 10 uM; tested in PC3 cells;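 GFP signal in the first replicate; 1 = infected wells without compound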
# * = called active by the depositor; i = inactive; . = not tested or not shown. The order is random. Share with any hit: about 1.2%.
SMILES,INS promoter inh,INS promoter inh cell count,PKD1 inh,GALR2 ag,HSV augment,HSV augment primary fold,RGS16-Gao
CCOc1ccc(CCNC(=O)CCc2nc(-c3ccc(C)cc3)no2)cc1OCC,58.1,85.5,-6.2,-2.1,i,0.78,104.5
O=c1[nH]c2cccnc2n1Cc1ccccc1,82.1*,117.4*,-0.4,-2.2,i,0.92,103.1
Cc1cc(OCc2cn3cccnc3n2)ccc1Cl,-44.0,28.6,-0.4,-1.7,i,0.96,76.9
CC1(C)C2CCC1(C)C(OC(=O)c1ccc(O)cc1)C2 (stereo not given),.,.,-7.8,.,.,.,96.4
COc1ccc(-c2cc(C(F)(F)F)n3nc(C(=O)N4CCOCC4)c(Cl)c3n2)cc1,.,.,-7.7,-2.6,i,0.79,91.6
CN(CCn1ccnc1)Cc1cn(-c2ccccc2)nc1-c1ccc2c(c1)OCO2,-16.7,131.8,-1.4,.,i,0.94,99.6
Cc1cc([N+](=O)[O-])nn1CC(=O)N1CCCc2ccccc21,-26.7,138.9,-0.2,-0.3,i,0.9,97.5
O=C(CN1CCN(Cc2ccccc2)CC1)Nc1ccc(S(=O)(=O)N2CCOCC2)cc1,-6.2,108.9,-10.8,-0.4,i,0.92,116.9
CCC1CCCCN1C(=S)NCc1ccccc1 (stereo not given),.,.,-8.6,0.7,i,0.89,98.4
CC1(C)CC(NC(=O)CSc2ccccc2)CC(C)(C)N1,.,.,-8.0,.,i,0.93,104.5
O=Cc1cn[nH]c1-c1cccc([N+](=O)[O-])c1,20.0,116.7,-0.7,.,i,1.11,105.4
COc1ccc(S(=O)(=O)CCC(=O)NC2CCCCC2)cc1,.,.,-1.4,-1.5,.,.,100.3
CN(C)S(=O)(=O)c1ccc(NC(=O)CNc2cc(S(=O)(=O)N3CCCC3)ccc2OCC(F)(F)F)cc1,-32.1,76.5,-12.7,-0.6,i,0.92,106.5
O=C(c1cccc(Br)c1)c1cn(-c2ccccc2)nc1C(=O)c1ccccc1,-25.7,47.5,-0.7,-1.2,.,.,30.2
O=C(Cn1cnc2c(nnn2Cc2ccccc2F)c1=O)OCc1ccccc1,.,.,-0.6,-1.1,.,.,97.1
CCN(CC)CCNC(=O)c1cc(-c2ccco2)nc2ccccc12,14.3,102.5,4.2,.,i,0.93,97.4
COc1ccc(S(=O)(=O)CC2(O)CCN(C(=O)C(C)(C)C)CC2)cc1,0.0,125.8,-6.9,.,i,0.93,110.0
Cc1ccc(N(CC(=O)N2CCn3c2nc2ccccc23)S(=O)(=O)c2c(C)n[nH]c2C)cc1,.,.,22.7,-0.8,i,0.93,93.4
Cc1ccc(S(=O)(=O)N/N=C/c2cc([N+](=O)[O-])ccc2O)cc1[N+](=O)[O-],0.0,146.3,-1.0,.,i,0.91,103.0
COc1ccc(C(OC(=O)c2ccco2)C(=O)NC(C)(C)C)cc1 (stereo not given),.,.,-3.6,.,i,0.98,100.2

# For convenience, some entries already given:
SMILES,INS promoter inh,INS promoter inh cell count,PKD1 inh,GALR2 ag,HSV augment,HSV augment primary fold,RGS16-Gao
CCOc1ccc(CCNC(=O)CCc2nc(-c3ccc(C)cc3)no2)cc1OCC,58.1,85.5,-6.2,-2.1,i,0.78,104.5
O=c1[nH]c2cccnc2n1Cc1ccccc1,82.1*,117.4*,-0.4,-2.2,i,0.92,103.1
Cc1cc(OCc2cn3cccnc3n2)ccc1Cl,-44.0,28.6,-0.4,-1.7,i,0.96,76.9
CC1(C)C2CCC1(C)C(OC(=O)c1ccc(O)cc1)C2 (stereo not given),.,.,-7.8,.,.,.,96.4
COc1ccc(-c2cc(C(F)(F)F)n3nc(C(=O)N4CCOCC4)c(Cl)c3n2)cc1,.,.,-7.7,-2.6,i,0.79,91.6
CN(CCn1ccnc1)Cc1cn(-c2ccccc2)nc1-c1ccc2c(c1)OCO2,-16.7,131.8,-1.4,.,i,0.94,99.6
Cc1cc([N+](=O)[O-])nn1CC(=O)N1CCCc2ccccc21,-26.7,138.9,-0.2,-0.3,i,0.9,97.5
O=C(CN1CCN(Cc2ccccc2)CC1)Nc1ccc(S(=O)(=O)N2CCOCC2)cc1,-6.2,108.9,-10.8,-0.4,i,0.92,116.9
CCC1CCCCN1C(=S)NCc1ccccc1 (stereo not given),.,.,-8.6,0.7,i,0.89,98.4
CC1(C)CC(NC(=O)CSc2ccccc2)CC(C)(C)N1,.,.,-8.0,.,i,0.93,104.5
O=Cc1cn[nH]c1-c1cccc([N+](=O)[O-])c1,20.0,116.7,-0.7,.,i,1.11,105.4
COc1ccc(S(=O)(=O)CCC(=O)NC2CCCCC2)cc1,.,.,-1.4,-1.5,.,.,100.3
CN(C)S(=O)(=O)c1ccc(NC(=O)CNc2cc(S(=O)(=O)N3CCCC3)ccc2OCC(F)(F)F)cc1,-32.1,76.5,-12.7,-0.6,i,0.92,106.5
O=C(c1cccc(Br)c1)c1cn(-c2ccccc2)nc1C(=O)c1ccccc1,-25.7,47.5,-0.7,-1.2,.,.,30.2
O=C(Cn1cnc2c(nnn2Cc2ccccc2F)c1=O)OCc1ccccc1,.,.,-0.6,-1.1,.,.,97.1
CCN(CC)CCNC(=O)c1cc(-c2ccco2)nc2ccccc12,14.3,102.5,4.2,.,i,0.93,97.4
COc1ccc(S(=O)(=O)CC2(O)CCN(C(=O)C(C)(C)C)CC2)cc1,0.0,125.8,-6.9,.,i,0.93,110.0
Cc1ccc(N(CC(=O)N2CCn3c2nc2ccccc23)S(=O)(=O)c2c(C)n[nH]c2C)cc1,.,.,22.7,-0.8,i,0.93,93.4
Cc1ccc(S(=O)(=O)N/N=C/c2cc([N+](=O)[O-])ccc2O)cc1[N+](=O)[O-],0.0,146.3,-1.0,.,i,0.91,103.0

# Next section
SMILES,INS promoter inh,INS promoter inh cell count,PKD1 inh,GALR2 ag,HSV augment,HSV augment primary fold,RGS16-Gao
O=C(COC(=O)CCCN=C1NS(=O)(=O)c2ccccc21)NC(=O)NC1CCCC1,40.0,95.6,-5.9,.,i,1.03,101.7
CCC(=O)c1ccc(CCCCCC(=O)O)s1,-48.4,92.5,-7.8,-2.5,.,.,113.5
CC(=O)Nc1ccc(S(=O)(=O)N[C@@H](C)C(=O)OCc2ccc(Cl)cc2)cc1,-70.0,121.1,-8.9,-2.3,i,1.06,103.2
O=C(c1ccc(N2CCOCC2)cc1[N+](=O)[O-])N1CCOCC1,-48.6,89.4,0.3,.,i,1.01,97.8
CC(=O)Nc1ccc(N2CCc3c(C)c(C#N)c4nc5ccccc5n4c32)cc1,-69.0,43.2,-15.8,0.7,i,0.81,96.6
O=C(NC(=S)Nc1ccc(N2CCOCC2)cc1)c1ccccc1,.,.,4.6,.,i,1.09,103.0
O=C(NCCOc1ccccc1)c1ccccc1,0.0,110.7,-4.9,-1.5,i,1.01,103.7
CCCCC1OC23CCCCC2C(C#N)(C(=N)O3)C1(C#N)C#N (stereo not given),-2.7,104.5,13.1,1.8,i,1.08,100.5
CO/N=C(/CS(=O)Cc1ccccc1Cl)c1ccc(Cl)cc1Cl (stereo not given),-22.2,83.6,0.0,-1.0,i,1.17,95.6
O=C(c1cccs1)N1CCN(C(=O)C2CCCO2)CC1 (stereo not given),12.0,84.3,0.0,-0.2,i,0.87,104.0
CSc1nc(-c2ccco2)nn1C(=O)CCc1ccccc1,-35.3,50.6,18.8,-0.8,i,0.57,100.5
Cn1c(=O)c2c(nc(SCC(=O)N3CCCCCC3)n2C)n(C)c1=O,-100.0,116.5,9.6,-2.0,i,0.82,108.1
CC(Oc1ccc(Cl)cc1Cl)C(=O)Nc1ccc(N2CCN(C)CC2)cc1 (stereo not given),-36.0,147.6,6.0,1.2,i,0.79,100.1
O=C(NCc1ccco1)c1cc(-c2cccs2)on1,.,.,-4.3,-2.9,i,1.1,80.0
Nc1cccc2c1C(=O)N(C(=O)/C=C/c1cccc(Br)c1)C2=O,.,.,.,.,i,1,85.9
Cc1nn2c3c(cnc2c1-c1ccccc1)C(=O)CC(C)C3 (stereo not given),18.2,132.7,-2.9,-1.1,.,.,.
O=C(O)c1cc(Cl)c(Cl)cc1C(=O)Nc1cccnc1,-11.1,72.5,3.1,.,i,0.94,108.4
COc1ccc([C@H](C)NC[C@H](O)c2ccc(O)c(NC=O)c2)cc1,20.0,130.2,6.5,.,i,0.82,77.5
O=C(COc1ccc(S(=O)(=O)Nc2ccccc2)cc1)N1CCOCC1,-127.8,77.5,-3.0,-2.0,i,1.02,85.7
O=C(c1ccc(S(=O)(=O)N2CCCCC2)cc1)N(c1ccccn1)C1CCCCC1,.,.,.,.,i,1.05,97.1
CCCOc1nc2c(c(=O)n(C)c(=O)n2C)n1CCC,22.6,116.0,-7.7,7.8*,.,.,95.1

# 3 compounds already listed, ordered by the number in PKD1 inh, ascending:
canonical_smiles,PKD1 inh,GALR2 ag,HSV augment primary fold,RGS16-Gao
CCC1CCCCN1C(=S)NCc1ccccc1 (stereo not given),-8.6,0.7,0.89,98.4
O=C(NCCOc1ccccc1)c1ccccc1,-4.9,-1.5,1.01,103.7
CCCCC1OC23CCCCC2C(C#N)(C(=N)O3)C1(C#N)C#N (stereo not given),13.1,1.8,1.08,100.5
